ALR H2O2 inh – inhibitors of human ALR sulfhydryl oxidase, primary screen, biochemical, H2O2 detection, HRP-luminol luminescence, single point; FAD-linked sulfhydryl oxidase ALR (Homo sapiens), P55789; purified ALR, DTT oxidation; inhibition, % (no concentration beside the values); 290,000 tested, 3.8% active;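 active = mean and each replicate at 75% or more; inconclusive = only one of the two met; inactive = neither met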;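 also: stock transfer was 7.5 nL into about 7.5 µL; 0% = neutral wells and 100% = wells with inactivated enzyme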
Target sequence (P55789 whole entry, looked up): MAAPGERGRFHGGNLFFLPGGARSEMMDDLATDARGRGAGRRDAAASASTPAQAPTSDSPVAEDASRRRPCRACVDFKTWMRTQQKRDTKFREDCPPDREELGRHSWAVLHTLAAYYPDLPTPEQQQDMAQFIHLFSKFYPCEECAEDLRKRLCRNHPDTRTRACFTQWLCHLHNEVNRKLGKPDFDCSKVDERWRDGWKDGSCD
FGF22 binding – binders of human FGF22 protein, primary screen, FGF22 synaptogenesis inhibitor project, biophysical, thermal shift, single point | Fibroblast growth factor 22 (Homo sapiens), Q9HCT0 | recombinant FGF22 thermal shift, SYPRO orange fluorescence; percent of sucrose octasulfate shift, DMSO zero | 340,000 tested, 1.5% active | calls only at 9.99 µM;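 active = melting point raised past a set limit in the mean and every replicate; inconclusive = no clear call; three in four hits are not shown here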
Target sequence (Q9HCT0 whole entry, looked up): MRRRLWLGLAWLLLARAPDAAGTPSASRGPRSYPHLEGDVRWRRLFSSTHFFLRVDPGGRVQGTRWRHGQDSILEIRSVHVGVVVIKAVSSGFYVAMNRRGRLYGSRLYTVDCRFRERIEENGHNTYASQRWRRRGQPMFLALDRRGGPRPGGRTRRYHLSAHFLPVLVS
Ecoli rRNA inh – reduced GFP signal of wild-type E. coli, primary screen, bacterial rRNA inhibitor project, GFP/RFP fluorescence, OD600, single point. E. coli WT GFP vs humanized-ribosome RFP mutants, 24 h; active compounds read low; DMSO median 0, no signal -100. GFP signal change (wild-type ribosome), % (test concentration not listed). 350,000 tested, 1.6% active;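 active = significant combined selectivity score with lowered wild-type GFP, culture density cut under 30%, mutant RFP and density less affected; inactive = any of these conditions unmet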; also: one replicate is shown; some compounds called inactive have numbers as strong as hits
MLL AF4-AF9 inh – inhibitors of AF4 peptide binding to AF9, primary screen, biochemical, AlphaScreen, biotin-AF4 peptide, FLAG-AF9, single point; inhibition, % at 10 µM; 350,000 tested, 0.47% active;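 active = every replicate reaching a set inhibition limit, whatever the replicate mean, cut at about 25% in these data; inconclusive = mean inhibition reaches that limit but some replicates miss it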;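 also: 0% = plate neutral control median and 100% = total signal loss; the record names both 10 and 1 µM as test concentration; the first replicate is given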
Target sequence (P42568 whole entry, looked up): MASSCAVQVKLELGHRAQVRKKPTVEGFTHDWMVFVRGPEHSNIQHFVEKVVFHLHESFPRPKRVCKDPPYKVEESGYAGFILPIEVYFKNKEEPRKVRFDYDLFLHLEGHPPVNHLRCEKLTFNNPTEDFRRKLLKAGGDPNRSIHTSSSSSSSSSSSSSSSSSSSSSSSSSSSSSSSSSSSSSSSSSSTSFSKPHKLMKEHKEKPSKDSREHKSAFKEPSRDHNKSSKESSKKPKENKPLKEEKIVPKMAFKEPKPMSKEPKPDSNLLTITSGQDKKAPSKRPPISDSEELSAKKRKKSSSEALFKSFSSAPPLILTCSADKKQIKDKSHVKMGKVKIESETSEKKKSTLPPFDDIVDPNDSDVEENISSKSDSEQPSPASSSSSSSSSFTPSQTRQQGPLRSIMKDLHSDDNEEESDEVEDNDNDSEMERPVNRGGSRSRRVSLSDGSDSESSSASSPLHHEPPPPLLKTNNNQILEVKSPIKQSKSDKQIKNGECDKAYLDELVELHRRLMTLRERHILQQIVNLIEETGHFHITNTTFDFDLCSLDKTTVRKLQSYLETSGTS
E coli growth – E. coli growth inhibition, primary screen, OD600 | Escherichia coli growth, 23 h; active compounds read low | 330,000 tested, 0.21% active | OD600 absorbance (test concentration not listed);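 active = OD600 absorbance below the run mean of sample wells minus 3.6 SD, in any replicate, cut at about 0.56 in these data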;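 also: stock transfer was 300 nL into about 60 µL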
HNF4A DNA FP – change in binding of human HNF4A to DNA, primary screen, biochemical, fluorescence polarization, FITC-DNA; Hepatocyte nuclear factor 4-alpha (Homo sapiens), P41235; 1 h; activity change, % at 10 µM; 360,000 tested, 0.3% active; AID 1224865, 2016; in the data active = activity change above about 30%, passing the limit was not always enough;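 also: controls were the assay level and a saturating level of protein; the project sought stronger binding though the title names inhibitors; some compounds called inactive have numbers as strong as hits; positive values seem to mean higher polarization but the record does not say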
Vif A3G – inhibitors of Vif binding to APOBEC3G peptide, primary screen, biochemical, TR-FRET, GST-Vif 1-94, biotin-A3G peptide, dose response retest (AID 1117319) | TR-FRET GST-Vif / biotin-A3G peptide binding; higher % means a stronger effect; test concentration not given here; strong numbers were not always called active | one-dose inhibition, %; IC50 in µM for titrated hits | 260,000 tested, 0.57% active;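 active = above the screen mean plus three standard deviations and confirmed in dose response; inconclusive = results disagree or hit not tested in dose response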;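 also: Vif residues 1-94 fused to GST binding biotinylated APOBEC3G peptide 110-148; 0% = full assay without inhibitor and 100% = GST in place of GST-Vif; retest series ran down from 100 µM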
Ecoli rRNA inh OD600 – further read-out of Ecoli rRNA inh, marked with its call; OD600 change, %; measured here: OD600 growth;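 optical density of the mix in the first replicate; 0 = DMSO median and -100 = no signal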
Ecoli rRNA inh RFP – further read-out of Ecoli rRNA inh, marked with its call; RFP signal change, %; measured here: RFP humanized mutant strains;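 first replicate; 0 = DMSO median and -100 = no signal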
* = called active by the depositor; i = inactive; ? = inconclusive; . = not tested or not shown. These rows are one share of the data. The share of hits here may be higher or lower than overall.

Order of results – ALR H2O2 inh	FGF22 binding	Ecoli rRNA inh	Ecoli rRNA inh OD600	Ecoli rRNA inh RFP	MLL AF4-AF9 inh	E coli growth	HNF4A DNA FP	Vif A3G
O=C(CCSc1nc(-c2ccco2)cc(C(F)(F)F)n1)NCc1cccs1
  4	.	.	.	.	.	0.7	-2.1	7%
COCCCN1C(=O)C(=O)/C(=C(/O)c2ccc(OC)cc2)C1c1ccc(O)c(OC)c1 (configuration not stated)
  34	.	.	.	.	.	0.67	-5.5	18%
COc1ccc(/C=C/C(=O)Oc2ccc(C)c(C)c2)cc1OC
  -3	i	-14	-5	-2.8	-1.6	0.69	0.7	2%
COc1ccccc1CNC(=O)C[C@H]1C[C@@H]2c3cc(NC(=O)c4cccnc4)ccc3O[C@@H]2[C@@H](CO)O1
  .	i	0	2	-0.1	-1.0	.	.	.
CCC1CCCCN1Cc1ccc(CNS(=O)(=O)c2ccc3c(c2)oc(=O)n3C)o1 (configuration not stated)
  -2	.	.	.	.	.	0.7	7.5	4%
CCOC(=O)C1CCN(C(=O)COC(=O)CNC(=O)c2sc3ccccc3c2Cl)CC1
  -3	i	-6	-10	0.9	-2.1	0.68	0.6	-17%
Cc1cccc(Nc2c3c(nc4ccccc24)CCC3)c1
  63	i	-32	-55	-2.3	.	0.58	2.7	-7%
COC(=O)C(=Nc1ccccc1)/C(C(=O)C(=O)N(C)c1ccccc1)=C(\O)c1ccc(Cl)cc1
  22	i	-14	-7	-0.6	-7.0	.	-3.6	12%
COc1cc(/C=C/C(=O)OCC(=O)c2ccc3c(c2)NC(=O)CO3)ccc1OC(F)F
  9	i	-8	-12	-0.9	-0.1	.	8.3	5%
COC(=O)C[N+](C)(C)CC#Cc1ccccc1
  .	i	-28	-43	-20	0.7	0.72	-0.5	-4%
Cc1noc(C)c1S(=O)(=O)N(C)C[C@H]1Oc2ccc(NC(=O)CCC(F)(F)F)cc2CC(=O)N([C@H](C)CO)C[C@@H]1C
  .	i	1	6	-0.6	0.3	.	.	.
CN(C)Cc1c(C(=O)N/N=C/c2ccoc2)nnn1-c1nonc1N
  4	i	3	5	-1.1	-1.0	.	-1.1	.
COc1ccccc1N(C)S(=O)(=O)c1ccc(C(=O)OCC(=O)N2CCC2)cc1
  -1	.	-4	-8	-0.4	-3.1	0.66	2.7	27%
Cc1ccc2[nH]c(=O)c(CN(CC3CCCO3)C(=S)Nc3ccccc3)cc2c1 (configuration not stated)
  -4	i	2	0	2.6	-1.3	0.66	-0.6	-3%
CCN(CC)c1ccc(C(=O)N2CCN(Cc3ccccc3)CC2)cc1
  40	.	.	.	.	.	0.65	2.5	?
O=S(=O)(N/N=C\c1ccc(-c2ccccc2Cl)o1)c1ccccc1
  8	.	.	.	.	.	.	5.0	?
CC(C)CC(NC(=O)C(CC(C)C)NC(=O)OC(C)(C)C)C(=O)O (configuration not stated)
  6	.	.	.	.	.	0.79	-0.8	-6%
C=CCn1c(SCC(=O)N2CCc3ccccc3C2)nc2sc(C)cc2c1=O
  -6	.	.	.	.	.	0.74	-1.7	1%
Cc1ccc(N2CC(C(=O)NNC(=O)c3ccc(F)cc3)CC2=O)cc1 (configuration not stated)
  -4	i	7	12	-0.5	-6.6	0.68	0.8	-8%
CC1CCCCN1C(=O)c1ccc(Br)o1 (configuration not stated)
  -3	i	-1	-36	-4.2	1.4	0.69	4.0	-7%
CCOc1ccc(-c2nnc(NC(=O)COc3ccccc3F)o2)cc1
  .	i	-4	-23	-1.9	-3.0	.	-2.3	-2%
Cn1cnc(S(=O)(=O)N[C@H]2C=C[C@@H](CC(=O)NCC3CC3)O[C@@H]2CO)c1
  .	i	4	4	-0.2	-1.3	.	.	.
COc1ccc(C(=O)NCc2nnc(SCC(=O)Nc3cccc(F)c3)o2)cc1
  -8	i	7	2	5.4	-1.8	.	2.7	-1%
Cc1cc(C2(c3ccc(O)c(C)c3)OC(=O)c3ccccc32)ccc1O
  77*	i	-37	-71	-19	7.2	.	5.7	23%
O=C(NCc1ccco1)c1nc2c(nnn2Cc2ccccc2Cl)c(=O)[nH]1
  10	i	-15	-13	-7.3	1.5	0.69	-1.9	1%
O=C(CCN=C1NS(=O)(=O)c2ccccc21)OCc1cccc(Cl)c1
  1	.	-2	-11	2.1	-9.0	0.66	-0.4	5%
Cc1ccc(OCCN2CCOCC2)cc1C
  12	i	12	21	-2.6	-2.0	0.61	2.4	4%
C=CCOc1cccn2c(N(C)C(=O)c3ccc(OC)cc3)c(CC)nc12
  .	i	1	14	-0.1	0.1	.	-4.7	.
N#Cc1cccc(C(=O)Nc2ccccc2C(=O)NC2CC2)c1
  .	i	5	13	-3.4	-5.2	0.66	-1.3	.
COc1cc(C=O)ccc1OCCSc1ccc(C)cc1
  0	i	11	2	-3.4	-8.5	0.67	-2.4	-6%
COc1ccc(CCn2c(=O)c3cccnc3n(Cc3cccc([N+](=O)[O-])c3)c2=O)cc1OC
  -1	i	-2	1	-2.6	6.6	0.68	0.0	-8%
O=C(CSc1nc(=O)n2cc(Cl)ccc2n1)NCCc1ccccc1
  -8	i	6	3	2.7	-1.3	0.68	13	10%
O=C(OCC#CCSc1nnc(-c2ccc(Br)cc2)o1)c1cccs1
  0	i	-5	-5	-1.6	1.6	0.74	-1.5	8%
O=C(CCN1CCCCC1)NCC[C@H]1CC[C@@H](NS(=O)(=O)c2cccc(F)c2)[C@@H](CO)O1
  .	i	-1	-2	-0.2	-0.9	.	.	.
C[C@@H]1CN([C@@H](C)CO)C(=O)c2cccc(NS(=O)(=O)c3cccs3)c2O[C@@H]1CN(C)Cc1ccc(Oc2ccccc2)cc1
  .	i	5	3	3.2	3.9	.	.	.
Cc1cc(C)nc(NC(=O)CSc2nc3cc(Cl)ccc3s2)n1
  .	.	.	.	.	.	0.72	-1.1	-1%
Cc1c(C(=O)N(CCO)Cc2ccccc2)oc2c(F)cccc12
  -4	i	-26	-36	-5.5	-0.8	0.67	1.5	.
COc1ccc(Cl)cc1-c1cc(C(=O)Nc2ccc(Br)cc2)[nH]n1
  .	i	-18	-33	27	-1.5	.	-5.2	.
C[C@H](CO)N1C[C@H](C)[C@H](CN(C)C(=O)Nc2ccc3c(c2)OCO3)OCCCC[C@H](C)Oc2ccc(NC(=O)Nc3ccccc3)cc2C1=O
  .	i	-2	3	-4.3	2.3	.	.	.
Cc1ccc(C)c(S(=O)(=O)Nc2ccc(C(=O)NCC(c3ccco3)N3CCCCC3)cc2)c1 (configuration not stated)
  -2	i	-6	-12	0.2	1.3	0.7	7.4	.
COC(=O)c1cc(N=C(N)N=C(N)N)cc(C(=O)OC)c1
  .	i	19	-3	4.5	0.2	0.63	2.2	10%
O=C(Nc1ccc2ccccc2c1)c1cnccn1
  -40	.	.	.	.	.	0.68	4.3	12%
O=C(N/N=C/c1ccccc1)c1n[nH]c2c1CCCC2
  0	i	13	14	3.2	-2.5	.	3.5	-1%
O=C(Nc1ccc(F)cc1)C(CCc1ccccc1)N1CCN(Cc2c(F)cccc2Cl)CC1 (configuration not stated)
  .	i	0	-8	0.5	-0.5	.	-1.5	.
O=C(c1ccccc1)c1ccc(C(=O)N2CCCC(C(F)(F)F)C2)cc1 (configuration not stated)
  3	i	-17	-20	-6.6	-9.0	0.68	0.1	-8%
CCCC#Cc1cnc2c(c1)C(=O)N([C@H](C)CO)C[C@@H](C)[C@H](CN(C)C(=O)Nc1ccccc1OC)O2
  .	i	0	-8	-1.1	2.2	.	.	.
COc1ccc2cc(C#N)c(N3CCOCC3)nc2c1
  27	i	4	11	6.6	-8.1	0.65	5.8	-7%
CCOC(=O)C1CSCCS(=O)(=O)N1Cc1ccc(Br)cc1 (configuration not stated)
  .	i	-4	1	4.1	-3.9	.	.	.
Cc1cc(=O)[nH]c(SCc2cccc3cccnc23)n1
  .	i	2	-4	-1.5	0.8	0.7	4.5	-2%
CCOc1ccc(-n2cc(-c3ccc(OC)c(OC)c3)[nH]c2=S)cc1
  -25	i	-10	0	-2.5	-8.7	0.67	1.0	7%
NC(=O)CC(NC(=O)Cc1cccc2ccccc12)c1ccc(N2CCCCCCC2)c([N+](=O)[O-])c1 (configuration not stated)
  0	i	8	7	3.5	0.9	0.67	-1.0	.
CNC[C@H]1Oc2cc(C#CCOC)ccc2S(=O)(=O)N([C@@H](C)CO)C[C@@H]1C
  .	i	0	-4	3.3	-1.7	.	.	.
CCCNC(=O)[C@H]1[C@H](CO)[C@H]2Cn3c(ccc(-c4ccc(F)cc4)c3=O)[C@H]2N1CC
  .	i	0	6	1.0	-5.3	.	.	.
CCOC(=O)/C(C#N)=C/c1cccn1-c1ccc(Cl)cc1
  1	i	.	.	.	-3.1	0.68	1.5	-9%
CN(Cc1ccccc1)C(=O)c1[nH]cnc1C(=O)Nc1cccc(Cl)c1
  6	i	18	7	-1.0	-2.3	0.67	0.9	.
CCOc1ccc(NC(=O)CCNc2c(N3CCCC3)c(=O)c2=O)cc1
  -1	.	.	.	.	.	0.74	0.6	5%
CN1CCn2cnc(C(=O)Nc3ccc(Cl)cc3)c2C1=O
  .	i	-9	-11	0.4	-1.0	.	1.2	0%
CCOc1ccc(Cl)cc1S(=O)(=O)N1CCC(C(=O)N2CCCC2)CC1
  3	i	9	2	2.2	-0.1	0.67	1.1	.
COc1cc2[nH]c(=S)n(NC(=O)c3ccccc3)c(=O)c2cc1OC
  .	.	.	.	.	.	0.67	1.1	-15%
CSC[C@H]1CN(c2ccc(Br)cc2)C(=O)[C@@H]1CC(=O)Nc1ccccc1
  .	i	-10	-11	-2.8	3.4	.	3.0	1%
